# Source: PubChem BioAssay
# rRNA inh HTS: selective bacterial rRNA inhibition in E. coli; E. coli WT GFP vs humanized-ribosome RFP mutants, fluorescence, 24 h; active compounds read low; DMSO median 0, no signal -100; GFP signal change (wild-type ribosome), % (concentration not given with the values); 350,000 tested, 1.6% active; AID 720706;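 active = significant combined selectivity score with lowered wild-type GFP, culture density cut under 30%, mutant RFP and density less affected; inactive = any of these conditions unmet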; note: one replicate is shown; some compounds called inactive have numbers as strong as hits
# FGF22 binding: shifts melting point of recombinant human FGF22; recombinant FGF22 thermal shift, SYPRO orange fluorescence; percent of sucrose octasulfate shift, DMSO zero; AID 651658; 340,000 tested, 1.5% active; calls only at 9.99 µM; Q9HCT0;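 active = melting point raised past a set limit in the mean and every replicate; three in four hits are not shown here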
# Target sequence (Q9HCT0 whole entry, looked up): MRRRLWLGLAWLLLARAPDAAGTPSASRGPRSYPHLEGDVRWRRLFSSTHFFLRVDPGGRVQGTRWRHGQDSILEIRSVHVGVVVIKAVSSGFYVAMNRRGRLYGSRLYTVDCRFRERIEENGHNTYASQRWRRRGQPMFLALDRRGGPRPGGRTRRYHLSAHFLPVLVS
# MLL AF4-AF9 inh: blocks AF4 peptide binding to human AF9; P42568; AlphaScreen, biotin-AF4 peptide binding to FLAG-AF9; inhibition, % at 10 µM; 350,000 tested, 0.47% active; AID 651704;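 active = every replicate reaching a set inhibition limit, whatever the replicate mean, cut at about 25% in these data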;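 note: 0% = plate neutral control median and 100% = total signal loss; the record names both 10 and 1 µM as test concentration; the first replicate is given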
# Target sequence (P42568 whole entry, looked up): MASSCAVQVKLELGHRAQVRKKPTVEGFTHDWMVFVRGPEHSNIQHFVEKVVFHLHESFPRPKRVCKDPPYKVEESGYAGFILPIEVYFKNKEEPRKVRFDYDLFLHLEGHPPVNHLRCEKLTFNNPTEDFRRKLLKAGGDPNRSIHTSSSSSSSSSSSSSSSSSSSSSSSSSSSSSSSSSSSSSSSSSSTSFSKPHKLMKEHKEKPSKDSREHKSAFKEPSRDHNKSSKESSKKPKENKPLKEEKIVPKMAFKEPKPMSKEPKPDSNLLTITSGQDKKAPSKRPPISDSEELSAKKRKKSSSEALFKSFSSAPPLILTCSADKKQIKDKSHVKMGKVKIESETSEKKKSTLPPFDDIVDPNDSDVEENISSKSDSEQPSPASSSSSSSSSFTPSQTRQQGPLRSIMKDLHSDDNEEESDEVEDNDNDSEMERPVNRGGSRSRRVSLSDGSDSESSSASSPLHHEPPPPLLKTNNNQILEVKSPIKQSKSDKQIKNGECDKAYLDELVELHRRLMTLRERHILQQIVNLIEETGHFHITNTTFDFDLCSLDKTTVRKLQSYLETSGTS
# rRNA inh HTS OD600: further read-out of rRNA inh HTS, marked with its call; OD600 change, %; measured here: OD600 growth;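 optical density of the mix in the first replicate; 0 = DMSO median and -100 = no signal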
# rRNA inh HTS RFP: recorded beside rRNA inh HTS, whose call it bears; RFP signal change, %; measured here: RFP humanized mutant strains;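 first replicate; 0 = DMSO median and -100 = no signal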
# Starred values were filed as active, the others as inactive; i = inactive; & = joins results of further samples.
SMILES,rRNA inh HTS,rRNA inh HTS OD600,rRNA inh HTS RFP,FGF22 binding,MLL AF4-AF9 inh
C[C@H]1CCCCO[C@H](CN(C)C(=O)NC2CCCCC2)[C@@H](C)CN([C@@H](C)CO)C(=O)c2cc(NC(=O)Cc3ccccc3)ccc2O1,-3.5,-10.0,2.7,i,3.8
C[C@@H]1CCCCO[C@H](CN(C)C(=O)Nc2ccc(F)cc2)[C@H](C)CN([C@@H](C)CO)C(=O)c2cc(NC(=O)CCC(F)(F)F)ccc2O1,-1.9,-0.2,-1.3,i,-1.9
C[C@H](CO)N1C[C@H](C)[C@@H](CN(C)S(=O)(=O)c2ccccc2)Oc2ccc(NS(=O)(=O)c3cn(C)cn3)cc2CC1=O,1.1,-0.6,1.0,i,-1.4
C[C@H]1CN([C@@H](C)CO)C(=O)CCCn2nncc2CO[C@@H]1CN(C)Cc1ccccc1,6.6&2.7,-0.2&6.8,-0.4&-3.9,i,-1.1&0.4
Cc1noc(C)c1NC(=O)N[C@H]1CC[C@H](CCNC(=O)C2CC2)O[C@H]1CO,-0.9,-1.9,0.2,i,-1.8
COC(=O)C[C@H]1CC[C@H]2[C@@H](COc3ccc(NC(=O)Nc4cccc(C)c4)cc3C(=O)N2C)O1,-2.0,-6.3,-1.8,i,2.1
COc1cccc(S(=O)(=O)Nc2ccc3c(c2)[C@H]2C[C@@H](CC(=O)N[C@@H](C)c4ccccc4)O[C@@H](CO)[C@H]2O3)c1,-8.9,-8.5,12.8,i,-1.2
C[C@@H](O)C#Cc1ccc2c(c1)O[C@@H](CN(C)C(=O)C1CC1)[C@@H](C)CN([C@@H](C)CO)S2(=O)=O,4.4,-1.7,-3.8,i,-6.9
C[C@H]1CN([C@@H](C)CO)C(=O)c2cc(NS(C)(=O)=O)ccc2O[C@@H]1CN(C)S(=O)(=O)c1cccs1,-0.6,0.1,0.1,i,-0.7
COc1ccc(CN(C)C[C@H]2OCCCC[C@@H](C)Oc3ccc(NS(=O)(=O)c4ccc(Cl)cc4)cc3C(=O)N([C@H](C)CO)C[C@H]2C)cc1,3.6,-30.6,32.9,i,6.7
COc1ccc(CCCNC(=O)C2Cc3c(-c4cccc(C(C)=O)c4)ccnc3O2)cc1 (centres undefined),-16.8,-30.7,-2.4,i,-0.1
CCNC(=O)C1(C)CCN(Cc2ccc(C(F)(F)F)cc2)C1 (centres undefined),10.8,14.5,-0.5,i,0.2
CO[C@H]1CN(C)C(=O)c2ccc(NC(=O)c3ccccc3)cc2OC[C@@H](C)N(C(=O)CN(C)C)C[C@H]1C,0.4,1.8,1.5,i,-4.3
Cc1ccc(S(=O)(=O)Nc2ccc3c(c2)C(=O)N([C@@H](C)CO)C[C@H](C)[C@H](CN(C)C(=O)NC(C)C)OCCCC[C@H](C)O3)cc1,-2.2,0.7,-1.9,i,-20.1
CCCN1C[C@@H](C)[C@@H](OC)CN(C)C(=O)c2ccc(NC(=O)CC(F)(F)F)cc2OC[C@H]1C,-1.5,-2.6,-1.3,i,-2.0
O=C(C[C@@H]1CC[C@@H]2[C@H](COC[C@H](O)CN2C(=O)Nc2ccccc2)O1)NCc1ccccc1F,6.2,19.5,-4.8,i,-1.0
Cc1noc(C)c1S(=O)(=O)Nc1ccc2c(c1)C(=O)N([C@@H](C)CO)C[C@@H](C)[C@H](CN(C)Cc1ccc(C(F)(F)F)cc1)OCCCC[C@@H](C)O2,3.8,-7.6,13.3,i,0.9
COc1ccc(S(=O)(=O)N(C)C[C@H]2OCCCC[C@H](C)Oc3ccc(NC(=O)CCCN(C)C)cc3C(=O)N([C@H](C)CO)C[C@H]2C)cc1,-2.3,2.2,-0.4,i,4.2
C[C@@H]1CN([C@H](C)CO)S(=O)(=O)c2ccc(C3=CCCC3)cc2O[C@H]1CN(C)C(=O)c1ccccn1,-1.3,-5.6,-2.2,i,-3.0
COCC#Cc1cnc2c(c1)C(=O)N([C@H](C)CO)C[C@H](C)[C@H](CN(C)C(=O)Nc1ccc(OC)cc1)O2,2.7,6.9,-0.8,i,-1.6
CCCC(=O)Nc1ccc2c(c1)OC[C@@H](C)N(CC1CCCC1)C[C@@H](C)[C@H](OC)CN(C)C2=O,0.4,-9.3,-0.2,i,-0.1
CO[C@H]1CC[C@@H]2CCOc3c(C#N)cccc3C(=O)N(C)CC3(CCCCC3)CC(=O)N(C)C[C@@H]1O2,1.6,0.2,-1.1,i,-3.6
O=C(Cc1ccccc1)N1CC[C@@H]2[C@@H](CO)Nc3ccc(-c4cccc(F)c4)cc3[C@@H]21,-57.4,-76.2,-13.8,i,2.3
C[C@@H](O)C#Cc1ccc([C@@H]2[C@@H](CO)N3CCCCN(S(=O)(=O)Cc4ccccc4)C[C@@H]23)cc1,1.2,-1.8,5.9,i,-9.4
Cc1ccccc1-c1ccc([C@@H]2[C@@H](CO)N3CCCCN(S(=O)(=O)c4cn(C)cn4)C[C@H]23)cc1,2.2,-27.2,2.0,i,5.1

# The closing 2 records of the section before open the next one.
SMILES,rRNA inh HTS,rRNA inh HTS OD600,rRNA inh HTS RFP,FGF22 binding,MLL AF4-AF9 inh
C[C@@H](O)C#Cc1ccc([C@@H]2[C@@H](CO)N3CCCCN(S(=O)(=O)Cc4ccccc4)C[C@@H]23)cc1,1.2,-1.8,5.9,i,-9.4
Cc1ccccc1-c1ccc([C@@H]2[C@@H](CO)N3CCCCN(S(=O)(=O)c4cn(C)cn4)C[C@H]23)cc1,2.2,-27.2,2.0,i,5.1
CC(C)NC(=O)N(C)C[C@@H]1OCCCC[C@@H](C)Oc2ccc(NC(=O)Nc3ccc(F)cc3)cc2C(=O)N([C@H](C)CO)C[C@@H]1C,0.9,-3.7,-0.7,i,0.4&-0.6
Cc1ccc(-c2cnc3c(c2)C(=O)N([C@@H](C)CO)C[C@H](C)[C@H](CN(C)Cc2ccccc2F)O3)cc1,-0.7,-22.1,-1.5,i,-8.7
O=C(N[C@@H]1CC[C@H](CC(=O)N2CCN(c3ccccc3)CC2)O[C@@H]1CO)c1ccncc1,3.5,7.1,-1.7,i,-4.4
N#Cc1ccc(-c2ccc3c(c2)[C@H]2[C@H](CCN2C(=O)CN2CCOCC2)[C@@H](CO)N3)cc1,-0.1,-1.6,-1.8,i,0.1
O=C(CCN1CCCCC1)N[C@H]1CC[C@H](CCNC(=O)c2cc(Cl)cc(Cl)c2)O[C@H]1CO,-0.7,-4.1,1.6,i,1.4
CC(C)CC#Cc1cnc2c(c1)C(=O)N([C@@H](C)CO)C[C@H](C)[C@@H](CN(C)C(=O)CC1CC1)O2,-2.1,-4.9,2.4,i,-0.9
Cc1cc(C(=O)Nc2cccc3c2O[C@@H](CN(C)S(=O)(=O)c2cn(C)cn2)[C@@H](C)CN([C@H](C)CO)C3=O)n(C)n1,-0.9,3.6,-0.5,i,-3.5
C[C@H]1CN([C@@H](C)CO)S(=O)(=O)c2ccc(Br)cc2O[C@H]1CN(C)S(=O)(=O)c1ccccc1,-10.2&-8.4,-40.1&-21.1,-4.7&1.8,i,1.8&1.3&3.8
C[C@@H]1CN([C@H](C)CO)C(=O)c2cccc(NC(=O)Nc3ccc(F)cc3)c2O[C@@H]1CN(C)C(=O)Nc1ccc2c(c1)OCO2,1.3,6.0,-0.9,i,4.6
Cc1noc(C)c1NC(=O)Nc1ccc2c(c1)C(=O)N([C@@H](C)CO)C[C@@H](C)[C@H](CN(C)C(=O)CCCN(C)C)OCCCC[C@@H](C)O2,3.4,2.6,4.4,i,-4.7
COC(=O)[C@@H](Cc1ccccc1)NC(=O)/C=C/[C@H]1O[C@@H](n2cnc3c(NC(=O)c4ccccc4)ncnc32)[C@H](O)[C@@H]1O,10.6,5.7,0.5,i,-1.2
COc1ccccc1CNC(=O)C[C@H]1C[C@@H]2c3cc(NS(C)(=O)=O)ccc3O[C@@H]2[C@H](CO)O1,-0.2,3.9,0.3,i,-1.5
CN1c2ccc(-c3ccccc3)cc2[C@H]2[C@H](CCN2C(=O)CN2CCOCC2)[C@H]1CO,-9.1,0.7,4.2,i,2.7
CC(C)NC(=O)N(C)C[C@H]1Oc2cc(C#C[C@@H](C)O)ccc2S(=O)(=O)N([C@@H](C)CO)C[C@@H]1C,3.8,3.0,-2.6,i,-4.5
CCCNC(=O)N1CC2(C1)[C@H](c1ccccc1)[C@@H](CO)N2Cc1cccc(F)c1,3.2,-2.7,2.4,i,-2.9
CC(=O)Nc1ccc(NC(=O)c2ccccc2Br)cc1,2.0,10.0,-3.0,i,-4.3
C[C@@H]1CN([C@H](C)CO)C(=O)c2ccccc2-c2ccccc2CO[C@@H]1CN(C)S(=O)(=O)c1ccc(C(F)(F)F)cc1,-0.9,-31.4,-2.3,i,-2.8
CCCN1[C@H](C(=O)N2CCN(C)CC2)[C@@H](CO)[C@@H]2Cn3c(ccc(-c4ccccc4F)c3=O)[C@@H]21,2.2,1.2,-1.5,i,1.1
C[C@H]1CCCCO[C@@H](CN(C)C(=O)c2ccccc2)[C@@H](C)CN([C@@H](C)CO)C(=O)c2cc(NS(C)(=O)=O)ccc2O1,-2.7,-5.8,-3.9,i,-5.6
CCCN(C)C[C@@H]1Oc2ncc(-c3cc4ccccc4o3)cc2C(=O)N([C@H](C)CO)C[C@@H]1C,4.2,1.0,0.9,i,4.9
COc1cccc(-c2cnc3c(c2)C(=O)N([C@@H](C)CO)C[C@H](C)[C@H](CN(C)Cc2ccncc2)O3)c1,0.5,11.0,-3.6,i,-3.4
C[C@@H]1CN([C@H](C)CO)C(=O)c2cc(N(C)C)ccc2O[C@H]1CN(C)Cc1ccncc1,-2.5,-0.4,1.6,i,-2.0
CN(C)C(=O)C[C@@H]1CC[C@@H]2[C@@H](COc3ccc(NC(=O)NCc4ccccc4)cc3C(=O)N2C)O1,3.1,2.0,-1.2,i,-7.0
CC(C)CC#Cc1ccc2c(c1)O[C@@H](CN(C)C(=O)Nc1ccccc1F)[C@H](C)CN([C@@H](C)CO)S2(=O)=O,-1.3,1.7,2.1,i,3.6
CN1C(=O)c2cc(NC(=O)c3cc(F)cc(F)c3)ccc2OC[C@H]2O[C@@H](CC(=O)O)CC[C@H]21,-3.3,-5.9,-0.5,i,-1.3

# Continuation.
SMILES,rRNA inh HTS,rRNA inh HTS OD600,rRNA inh HTS RFP,FGF22 binding,MLL AF4-AF9 inh
COCC(=O)N(C[C@H]1N[C@H](CO)[C@H]1c1ccc(-c2cccnc2)cc1)C(C)C,1.5,6.4,-1.8,i,-2.1
CC(C)NC(=O)N[C@H]1CC[C@@H](CC(=O)NCCCN(C)C)O[C@@H]1CO,0.8,1.8,-1.2,i,-1.8
COCC#Cc1ccc2c(c1)O[C@@H](CN(C)CC1CCCC1)[C@H](C)CN([C@@H](C)CO)S2(=O)=O,0.3,-7.2,-3.3,i,3.1
C[C@@H]1CN([C@H](C)CO)C(=O)c2cc(-c3cccc(F)c3)cnc2O[C@@H]1CN(C)C(=O)C1CCC1,-2.3,-2.3,-0.6,i,-3.9
CCCN(C)C[C@@H]1OCCCC[C@@H](C)Oc2ccc(NS(=O)(=O)c3cn(C)cn3)cc2C(=O)N([C@@H](C)CO)C[C@@H]1C,2.7,3.4,0.3,i,-3.7
C[C@@H]1CN([C@H](C)CO)S(=O)(=O)c2ccc(C3=CCCC3)cc2O[C@@H]1CN(C)S(=O)(=O)c1ccc(F)cc1,-0.9,-2.9,-1.3,i,-0.7
COc1ccc(S(=O)(=O)N(C)C[C@@H]2OCCCC[C@@H](C)Oc3ccc(NC(=O)CCC(F)(F)F)cc3C(=O)N([C@@H](C)CO)C[C@H]2C)cc1,-2.4,-1.6,0.4,i,-0.9
C[C@@H]1CCCCO[C@@H](CN(C)S(C)(=O)=O)[C@@H](C)CN([C@H](C)CO)C(=O)c2cc(NS(=O)(=O)c3cccs3)ccc2O1,2.3,-8.2,-2.7,i,0.6
CC=Cc1ccc2n(c1=O)C[C@@H]1[C@@H](CO)[C@H](C(=O)NCCC)[C@H]2N1C(=O)C1CC1 (mixture of isomers),4.3,6.1,-2.3,i,0.4
C[C@H](CO)N1C[C@H](C)[C@H](CN(C)C)Oc2ncc(-c3ccc(F)cc3)cc2C1=O,6.5,14.4,-0.5,i,-1.1
CC1=C(C(=O)N(C(C)C)C(C)C)CC(CC(=O)NCCN2CCOCC2)C(=O)N1CCCN1CCCC1=O (centres undefined),6.4,17.0,-1.8,i,-1.4
Cc1ccccc1S(=O)(=O)NCC[C@@H]1CC[C@@H](NC(=O)C2CCCC2)[C@H](CO)O1,0.9,0.5,0.5,i,-1.1
O=C(Cc1ccccn1)N1CC[C@@H]2[C@H](CO)Nc3ccc(-c4cccc(F)c4)cc3[C@@H]21,1.0,1.2,3.9,i,1.5
CC(C)NC(=O)N(C)C[C@@H]1Oc2c(cccc2N(C)C)C(=O)N([C@@H](C)CO)C[C@H]1C,-1.5,6.2,-1.5,i,-2.7

# Retrieved by structure from the entries so far (two):
SMILES,rRNA inh HTS,rRNA inh HTS OD600,rRNA inh HTS RFP,FGF22 binding,MLL AF4-AF9 inh
COc1ccc(S(=O)(=O)N(C)C[C@@H]2OCCCC[C@@H](C)Oc3ccc(NC(=O)CCC(F)(F)F)cc3C(=O)N([C@@H](C)CO)C[C@H]2C)cc1,-2.4,-1.6,0.4,i,-0.9
CCCN(C)C[C@@H]1OCCCC[C@@H](C)Oc2ccc(NS(=O)(=O)c3cn(C)cn3)cc2C(=O)N([C@@H](C)CO)C[C@@H]1C,2.7,3.4,0.3,i,-3.7

# The list is partial, so the mix of outcomes need not match the whole.
